High-throughput results (PubChem BioAssay)
SARS PLP yeast = blocks SARS-CoV papain-like protease in a yeast assay | Potency, µM (titrated, usually from 32.9 µM), for inactives: at the highest dose activity, positive = growth rescue | actives 0.19% (n = 330,000) | S. cerevisiae expressing SARS-CoV PLpro, growth rescue; control for the full effect not named in the record; active means well fitted rising curve with a large enough effect; inconclusive means small, poorly fitted or top-dose-only effect; inactive means no such curve, though single readings can be large or run the other way; further: 0% is about no effect; nearly all actives have a fitted effect of over 55% in size; growth read by luminescence after 48 h
Lassa entry inh = inhibitors of Lassa virus binding or cell entry. Lassa virus pseudotype entry inhibition, cell reporter; control for the full effect not named in the record. actives 1.2% (n = 300,000). Potency, µM (highest dose often 37.9 µM), for the others: at the highest dose activity change, negative = inhibition, most hits filed as inhibitors; active means well fitted inhibition curve with a large enough effect; inconclusive means small, poorly fitted or top-dose-only effect, or effect the other way; inactive means flat fitted curve, though single readings scatter; tested in HEK293 cells; further: on the % scale 0 is the no-effect control and ±100 the full control effect; nearly all actives have a fitted effect of over 50% in size; luciferase read-out
Cruzain inh Det = blocks cruzain activity in presence of Triton detergent | P25779 | purified cruzain, Z-FR-AMC fluorescence, 0.01% Triton | Potency, µM, for inactives: max response, negative = inhibition, actives largely listed as inhibitors | actives 0.43% (n = 200,000) | AID 1478;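 further: plate controls were neutral wells for no effect and buffer without enzyme for full effect; nearly all actives have a fitted effect of over 40% in size; top concentration of the series not given in the record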
Target sequence (P25779 123-467 limits assumed): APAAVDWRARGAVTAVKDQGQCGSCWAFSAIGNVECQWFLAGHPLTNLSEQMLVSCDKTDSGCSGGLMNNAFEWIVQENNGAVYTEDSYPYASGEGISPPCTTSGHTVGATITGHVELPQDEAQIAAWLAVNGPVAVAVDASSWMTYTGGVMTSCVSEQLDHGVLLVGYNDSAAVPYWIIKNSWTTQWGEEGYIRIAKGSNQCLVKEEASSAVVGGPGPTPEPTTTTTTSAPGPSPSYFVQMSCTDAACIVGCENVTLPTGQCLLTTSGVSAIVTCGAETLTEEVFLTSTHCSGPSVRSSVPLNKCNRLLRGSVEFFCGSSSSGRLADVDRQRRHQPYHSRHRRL
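Detergent-containing run (0.01% Triton X-100) in acetate buffer pH 5.5 with 5 mM DTT: enzyme at 1.5 nM final, 15 min compound preincubation at room temperature, then 2 uM Z-FR-AMC substrate. Activity taken as 60 s fluorescence increase at 360/450 nm.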
Cruzain noTriton = inhibitors of Trypanosoma cruzi cruzain without detergent; AID 1476; actives 2.3% (n = 200,000); Potency, µM, inactives show max response, negative = inhibition, most hits filed as inhibitors; P25779; purified cruzain, Z-FR-AMC fluorescence, no detergent;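 further: plate controls were enzyme without inhibitor for no effect and buffer without enzyme for full effect; nearly all actives have a fitted effect of over 40% in size; top concentration of the series not given in the record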
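Detergent-free condition (0.00005% Triton X-100) in acetate buffer pH 5.5 with DTT. 1.5 nM enzyme and compound were pre-mixed 15 min, then 2 uM Z-FR-AMC substrate added; reaction progress from fluorescence change between first and third reads (60 s).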
NS1 inh = influenza NS1 inhibition | S. cerevisiae slowed by influenza A NS1, growth recovery by OD600 | actives 0.4% (n = 270,000) | Potency, µM (highest dose often 46.1 µM), inactives show top-dose activity, positive = more growth; active means well fitted rising curve with a large enough effect; inconclusive means small, poorly fitted or top-dose-only effect; inactive means no such curve, though single readings can be large or run the other way; further: nearly all actives have a fitted effect of over 50% in size
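Compounds were scored for reversing the slow growth caused by influenza A NS1 in S. cerevisiae, measured by optical density at 600 nm. Assay medium contained 2% galactose at pH 6.0; NS1-free yeast of the same strain were the positive control.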
Marburg entry inh = blocks Marburg virus binding to or entry into cells. actives 1.8% (n = 300,000). Marburg virus pseudotyped entry inhibition, cell reporter; control for the full effect not named in the record; about a third of the inactives were read at about 46 µM. Potency, µM (titrated, usually from 37.8 µM), for the others: at the highest dose activity change, negative = inhibition, usual class: inhibitors; active = well fitted inhibition curve with a large enough effect; inconclusive = small, poorly fitted or top-dose-only effect, or effect the other way; inactive = flat fitted curve, though single readings scatter; tested in HEK293 cells; about a fifth of its hits are not listed in these tables; further: on the % scale 0 is the no-effect control and ±100 the full control effect; luciferase read-out
2A StopGo = lowers the luciferase signal of an FMDV 2A StopGo reporter. human cells with a luciferase reporter of 2A StopGo recoding; control for the full effect not named in the record. Potency, µM (series often up to 57.9 µM), inactives show top-dose signal change, negative = less light. actives 1.2% (n = 410,000). AID 1159524; active = well fitted falling curve with a large enough effect; inconclusive = small, poorly fitted or top-dose-only effect; inactive = no such curve, though single readings can be large or run the other way; tested in HEK293T cells; further: on the % scale 0 is the no-effect control and ±100 the full control effect; nearly all actives have a fitted effect of over 45% in size; luciferase light after 4 h
RE007 growth inh = less growth of the S. pombe RE007 Vpr strain. Potency, µM (titrated, usually from 92.2 µM), without a hit: at the top dose activity change, negative = less growth. S. pombe RE007 Vpr strain, BacTiter-Glo ATP luminescence, 24 h; control for the full effect not named in the record. AID 651644. actives 0.21% (n = 360,000); active = well fitted falling curve with a large enough effect; inconclusive = small, poorly fitted or top-dose-only effect; inactive = no such curve, though single readings can be large or run the other way;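 further: on the % scale 0 is the no-effect control and ±100 the full control effect; nearly all actives have a fitted effect of over 50% in size; the assay follows cell death caused by Vpr and the record does not say whether a fall means rescue or toxicity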
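Fission yeast strain RE007, carrying one chromosomally integrated HIV-1 vpr copy, was seeded at OD 0.01 in PMG+AL medium with 23 nL pinned compound. After 24 h at 30 °C and 99% humidity, viability was read by BacTiter-Glo luminescence.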
An asterisk follows results filed as active; ? = inconclusive; nt = no result given; & = joins results of further samples; [ ] = remark or other dose. Unless noted, the call rests on the fitted dose curve; in most records, active means well fitted curve in the direction sought with a large enough effect; inconclusive means small, poorly fitted or top-dose-only effect, or another doubt; inactive means no such curve, though single readings can be large; an effect the other way counts as inactive or inconclusive. Potency means the concentration at half of the fitted maximal effect.

1: COc1cc2c(cc1OC)-c1cc(OCc3cccnc3)nc(=O)n1CC2
2: CCCCn1c(=N)c(S(=O)(=O)c2ccccc2)cc2c(=O)n3cccc(C)c3nc21
3: O=c1[nH]ccc2c(O)cccc12
4: CCn1cnc2cc(NCc3ccc(OC)cc3)ccc21
5: CCCn1ncc(CN2CCC(n3nccc3NC(=O)c3ccccc3OC)CC2)c1C
6: COC(OC)C1Nc2ccccc2C(=O)N1c1ccc(F)cc1 (stereo not given)
7: CC(=O)c1ccccc1C(=O)N1CCCC(CNC(=O)c2ccccc2Cl)C1 (stereo not given)
8: CS(=O)(=O)c1ccc(C(=O)OCc2nnc(-c3ccccc3)o2)cc1[N+](=O)[O-]

Compound	1	2	3	4	5	6	7	8
SARS PLP yeast	1%	nt	nt	-6%	-2%	1%	-2%	-5%
Lassa entry inh	?	?	9%	18%	-1%	1%	nt	?
Cruzain inh Det	?	0.7%	-3.9%	-0.7%	nt	nt	nt	nt
Cruzain noTriton	?	14%	-5%	?	nt	nt	nt	nt
NS1 inh	9%	nt	3%	-7%	0%	nt	9%	-36%
Marburg entry inh	1%&1%	nt	?	?	3%	0%	nt	3.2µM*
2A StopGo	7%	-4%	-6%	21%	-22%	-18%	14%	0%
RE007 growth inh	11%	nt	-3%	-22%	-22%	-13%	17%	33%

9: CCOc1cccc(NC(=O)C2CC(=O)N(C)C(=Nc3cccc(OC)c3)S2)c1 (stereo not given)
10: COc1ccc(C(=O)N2CC(=O)N(CCc3ccccc3)C(=O)C2)cc1OC
11: O=C1c2ccccc2C(=O)N1Cc1ccccn1
12: Cc1ccccc1C(N)c1ccncc1 (stereo not given)
13: CCOc1ccc(N2CC(C(=O)NCCc3ccc(S(N)(=O)=O)cc3)CC2=O)cc1 (stereo not given)
14: Cc1ccc(Cc2cncc(O)c2)cc1S(=O)(=O)O
15: COc1ccc(S(=O)(=O)NCC(c2cccnc2)N2CCN(Cc3ccccc3)CC2)cc1 (stereo not given)
16: CCC(=O)C1CCCN(C(=O)c2ccc(OC3CCN(C(=O)c4cccnc4)CC3)cc2)C1 (stereo not given)

Compound	9	10	11	12	13	14	15	16
SARS PLP yeast	nt	-2%	1%	13%	-4%	4%	0%	0%
Lassa entry inh	?	14%	15%[46.1 µM]	nt	14%	13%	-27%[46.1 µM]	13%
Cruzain inh Det	-5.4%	-0.2%	nt	nt	nt	5.7%	nt	nt
Cruzain noTriton	?	10%	nt	nt	nt	-2%	nt	nt
NS1 inh	nt	2%	nt	15%	5%	0%	-2%	-2%
Marburg entry inh	nt	11%[46.1 µM]	4%&4%[46.1 µM]	nt	-3%[46.1 µM]	22%	-24%[46.1 µM]	25%[46.1 µM]
2A StopGo	?	-27%	12%	-9%	-5%	-2%	-5%	4%
RE007 growth inh	nt	-16%	-6%	5%	13%	1%	-13%	20%

Record cards, as listed above.
`COc1cc2c(cc1OC)-c1cc(OCc3cccnc3)nc(=O)n1CC2` reads SARS PLP yeast = 1%; Lassa entry inh = ?; Cruzain inh Det = ?; Cruzain noTriton = ?; NS1 inh = 9%; Marburg entry inh = 1%&1%; 2A StopGo = 7%; RE007 growth inh = 11%
`COc1ccc(C(=O)N2CC(=O)N(CCc3ccccc3)C(=O)C2)cc1OC` reads SARS PLP yeast = -2%; Lassa entry inh = 14%; Cruzain inh Det = -0.2%; Cruzain noTriton = 10%; NS1 inh = 2%; Marburg entry inh = 11%[46.1 µM]; 2A StopGo = -27%; RE007 growth inh = -16%
`CCCn1ncc(CN2CCC(n3nccc3NC(=O)c3ccccc3OC)CC2)c1C` reads SARS PLP yeast = -2%; Lassa entry inh = -1%; Cruzain inh Det = nt; Cruzain noTriton = nt; NS1 inh = 0%; Marburg entry inh = 3%; 2A StopGo = -22%; RE007 growth inh = -22%

Next part
17: O=c1c([N+](=O)[O-])c(O)c2cccc3c2n1CCC3
18: O=C(/C=C/c1c(Cl)cccc1Cl)NCCc1ccccc1
19: Cc1cc(O)c(C(C)C)cc1C1(c2cc(C(C)C)c(O)cc2C)OC(=O)c2ccccc21
20: Cc1ccsc1/C=C(\C(=O)c1ccc(OC(C)C)cc1)c1nc2ccccc2o1
21: CCO[C@H]1OC(C(=O)N2CCOCC2)=C[C@@H](c2ccc(Br)cc2)[C@@H]1CCCO
22: COCCNc1nc2c(c(=O)[nH]c(=O)n2C)n1CCCc1ccccc1
23: OC(CNc1ccccc1)Cn1ccc2ccccc21 (stereo not given)
24: Cc1ccc(-c2cn3c4c(=O)n(C)c(=O)n(C)c4nc3n2-c2cccc(Cl)c2)cc1

Compound	17	18	19	20	21	22	23	24
SARS PLP yeast	-2%	5%	2%	5%	1%	-1%	-1%	nt
Lassa entry inh	-19%[46.1 µM]	-22%	?	?	nt	-1%	-14%	nt
Cruzain inh Det	nt	-2.6%	0.6%	-4.5%	nt	nt	nt	1.6%
Cruzain noTriton	nt	-1%	5%	32µM*	nt	nt	nt	-1%
NS1 inh	1%	0%	-8%&-35%	14µM*	-5%	-11%	6%	nt
Marburg entry inh	3%[46.1 µM]	-20%	?	?	nt	6%	?	nt
2A StopGo	-6%	41%[activator]	?	-10%	-20%	-3%	-4%	-7%
RE007 growth inh	-7%	1%	-5%	-6%	18%	-1%	-12%	nt

25: CCOC(=O)c1c(N)sc2c(OCC)c(Br)ccc12
26: COc1ccc(CNC(=O)CN(Cc2ccc(Cl)cc2)S(C)(=O)=O)cc1
27: CCOc1ccc(Nc2oc(-c3ccccc3Cl)nc2C#N)cc1
28: Cc1nnc(N/N=C/c2cccc(OCc3ccc(Cl)c(Cl)c3)c2)n1N
29: COC(=O)C1=C(COc2ccc(C=O)cc2OC)NC(=O)NC1c1cc(C)ccc1C (stereo not given)
30: CCc1c(O)nc(SCC(=O)NCc2ccco2)[nH]c1=O
31: CN(C)S(=O)(=O)c1ccc(NC(=O)CN2CCN(C(c3ccccc3)c3ccccc3)CC2)cc1
32: CCC(=O)NCC(=O)OCC(=O)c1ccccc1

Compound	25	26	27	28	29	30	31	32
SARS PLP yeast	-27%	2%	-2%	-26%	-8%	-7%	4%	0%
Lassa entry inh	-12%	4%	-21%	?	8%	-7%	19%	8%
Cruzain inh Det	-13%	-3.9%	-2.7%	22µM*	-9.2%	5.5%	-2.5%	-2.1%
Cruzain noTriton	-9%	16%	2%	?	-1%	-1%	6%	3%
NS1 inh	-47%	0%	-5%	-11%	20%	7%	11%	5%
Marburg entry inh	?	-5%	?	?	?	7%	16%	5%
2A StopGo	nt	-26%	7%	12%	2%	2%	13%	4%
RE007 growth inh	?	-5%	8%	-7%	2%	25%	6%	-13%

33: COc1ccc(-c2nc(C#N)c(N3CCc4ccccc4C3)o2)cc1OC
34: COc1ccccc1-n1c(SCC(=O)NC(C)(C)C)nc(O)c(Cc2ccccc2)c1=O
35: C=CCn1c(SCC#N)nnc1-c1ccc2ncccc2c1
36: CCN(CC(=O)NCCc1ccc(Cl)cc1)Cc1nc2ccccc2c(=O)[nH]1
37: CN(C)c1ccc(/C=N/NC(=S)NCc2ccccc2)cc1
38: COc1ccc(CCNC(=O)C2CCCN(c3nn4c(=O)cc(C)nc4s3)C2)cc1OC (stereo not given)
39: O=C(O)Cn1c(CC(=O)N2CCCC2)nc2ccccc21
40: CCS(=O)(=O)NCC(c1cccnc1)N1CCN(c2ccccc2F)CC1 (stereo not given)

Compound	33	34	35	36	37	38	39	40
SARS PLP yeast	2%	-6%	-3%	-1%	9%	-5%	1%	-3%
Lassa entry inh	?	-4%	nt	-7%	0.28µM*	?	11%	2%
Cruzain inh Det	?	-0.5%	nt	nt	-3.6%	-4.9%	6.9%	1.4%
Cruzain noTriton	?	3%	nt	nt	?	5%	-4%	-2%
NS1 inh	10%	21%	5%	nt	23%	0%	0%	-9%
Marburg entry inh	?	1%[46.1 µM]	nt	-23%[46.1 µM]	-1%	1%&1%	14%	-12%
2A StopGo	0%	-5%	6%	-2%	21%	6%	nt	-17%
RE007 growth inh	-9%	-17%	3%	-7%	-16%	9%	11%	3%

41: CCN1CCN(c2ccc(NC(=O)c3ccccc3F)cc2Cl)CC1
42: Cc1cc(C)c(NC(=O)CSc2nc3c([nH]c4ccccc43)c(=O)n2C)c(C)c1
43: COc1ccc(N2CCN(C(=O)CCc3cc(OC)c(OC)c(OC)c3)CC2)cc1
44: CC(C)CCNC(=O)c1ccc(Cl)c(NC(=O)Cc2ccccc2)c1
45: CCOc1ccc(NC(=S)c2ccc3ccccc3n2)cc1
46: CCN(c1cccc(C)c1)c1nc2ccsc2c(=O)s1
47: Cc1cc(C)nc(NS(=O)(=O)c2ccc(N/C=C\C(=O)c3ccc(Cl)cc3)cc2)n1
48: CN(C)S(=O)(=O)N1CCC(Oc2cccc(C(=O)N3CCCCCC3)c2)CC1
49: COc1ccc(C(=O)O)cc1NC(=S)NC(=O)/C=C/c1ccc(C(C)C)cc1

Compound	41	42	43	44	45	46	47	48	49
SARS PLP yeast	-4%	nt	-1%	16%	3%	-4%	9%	-3%	0%
Lassa entry inh	-10%	19%[46.1 µM]	nt	?	nt	?	-44%	?	-6%[46.1 µM]
Cruzain inh Det	nt	1.2%	nt	-1.9%	nt	-4.5%	2.2%	nt	nt
Cruzain noTriton	nt	5%	nt	-8%	nt	1%	-2%	nt	nt
NS1 inh	nt	nt	-3%	10%	-5%	-2%	?	5%	3%
Marburg entry inh	?	nt	nt	-8%	nt	?	12%	?	-22%[46.1 µM]
2A StopGo	48%[activator]	5%	-9%	nt	-4%	?	nt	-18%	-15%
RE007 growth inh	-24%	nt	14%	nt	-4%	-6%	6%	-2%	-11%
